Sa helicase inh – inhibitors of S. aureus replicative helicase, primary screen, biochemical, fluorescence unwinding readout | hit rate 0.05% among 120,000 | purified S. aureus helicase, fluorescence unwinding assay; about half of the hits fall short of the stated cut | inhibition, %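 (tested at about 80 µM)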 | replicative DNA helicase (DnaC/DnaB), Staphylococcus aureus;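 active = both duplicates at 50% or more, or one of them with a favoured structure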;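 also: 0% = mean of negative control wells and 100% = mean of positive control wells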
MgrA DNA FP – S. aureus MgrA activity modulators, primary screen, biochemical, S. aureus Newman, fluorescence polarization; inhibition, %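 (about 10 µg/mL by stock and volumes)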; AID 602314, 2012; MgrA-DNA binding; hit rate 0.13% among 84,000;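 active = above 50% in either of two replicates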;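 also: 0% = protein plus DNA without compound and 100% = DNA alone without protein; higher means less MgrA bound to DNA so lower polarization; one replicate is shown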
* marks the source's active call; other numbers are inactive results; x = no result given; & = joins results of further samples. An excerpt. The share of hits here may be higher or lower than overall.

#	Sa helicase inh	MgrA DNA FP	compound
1	6.0	0.3	CCOc1ccc(/C(O)=C2\C(=O)C(=O)N(CCN(CC)CC)C2c2ccc(Cl)cc2)cc1C (stereo unspecified)
2	x	-0.3	Cc1nc(C(=O)Nc2ccc(Cl)cc2)sc1C(=O)Nc1ccc(Cl)cc1
3	17.0	x	Cc1cc2cc(CNC(=O)c3ccc(S(=O)(=O)N(C)C)cc3)ccc2n1C
4	7.0	x	CC(=O)Nc1ncc(Cc2ccc(C)cc2)s1
5	x	1.4	CCOC(=O)c1c(NC(=O)Cc2ccccc2)sc(C(=O)Nc2cccc(C(F)(F)F)c2)c1C
6	4.0	-4.0	CC(=O)N1c2ncnn2C(c2ccccc2)CC1c1ccc(C)cc1 (stereo unspecified)
7	10.0	-0.4	O=C(c1ccc(Oc2ccccc2)cc1)c1nc2c(n1O)CCCC2
8	6.0	x	CCOc1ncccc1C(=O)OCC(=O)NCc1ccccc1
9	4.0	x	Cc1nnc(NC(=O)CCn2c(=O)sc3ccccc32)s1
10	6.0	-3.5	O=C(CSc1ccc2ccccc2c1)N1CCN(c2ccc(O)cc2)CC1
11	x	0.1	CC(=O)O[C@@H]1OC[C@@H](OC(C)=O)[C@H](OC(C)=O)[C@H]1OC(C)=O
12	1.0	-0.8	Cc1nnc2c3ccccc3c(-c3ccc(O)cc3)nn12
13	1.0	x	O=C(C1CCCN(S(=O)(=O)Cc2ccccc2)C1)N1CCCCC1 (stereo unspecified)
14	5.0	x	CCC(C)NC(=O)C1CCN(S(=O)(=O)c2cccc3nonc23)CC1 (stereo unspecified)
15	-3.0	x	CC1(C)CC(=O)C/C(=N/c2nn[nH]n2)C1
16	5.0	2.2	CC(CCC(N)=O)C(=O)c1ccccc1 (stereo unspecified)
17	-4.0	x	Cc1c(C(=O)OCc2ncc(-c3ccccc3)o2)oc2ccccc12
18	5.0	x	NCc1ccc(OC(F)F)cc1
19	17.0	-1.6	O=C(Nc1cccc(C(F)(F)F)c1)c1ccco1
20	7.0	-2.3	NC(Cc1cccc2nsnc12)C(=O)O (stereo unspecified)
21	-9.0	1.0	Cc1cc(C)n(-c2ncnc3sc4c(c23)CC(C)CC4)n1 (stereo unspecified)
22	14.0	x	O=CN/N=C/c1cc(Br)ccc1O
23	-1.0	7.9	C1=CC2=Nc3cccc[n+]3CN2C=C1
24	x	-0.7	CN(Cc1ccccc1)C1CC(=O)N(c2ccccc2)C1=O (stereo unspecified)
25	x	-2.3	NC(=O)C1CCN(CC(O)Cc2ccc3c(c2)OCO3)CC1 (stereo unspecified)
26	17.0	x	CCS(=O)(=O)c1ccc2oc(NC(=O)CCCOc3ccc(Cl)cc3C)nc2c1
27	2.0	4.1	CCOC(=O)Cn1cc(/C=C2/C(=O)NC(=S)N(Cc3ccco3)C2=O)c2ccccc21
28	-12.0	0.8	CC1(C)Cc2c(sc3nc(NN)n(Cc4ccccc4)c(=O)c23)CO1
29	6.0	-3.4	O=c1n(Cc2ccc(Cl)cc2)c2sc3c(c2c2ncnn12)CCCC3
30	6.0	-2.0	CC1CCCN(S(=O)(=O)c2ccc(N)cc2)C1 (stereo unspecified)
31	-3.0	-0.8	O=C(c1ccco1)N1CCC(c2ccccc2)C1 (stereo unspecified)
32	15.0	-9.8	Cc1ccc(OCC(=O)Oc2ccccn2)cc1
33	-14.0	x	COC(=O)c1ccc(/C=N/n2cnnc2)cc1
34	x	1.3	COc1cc(C(=O)Nc2ccc3oc(-c4cccc(Cl)c4)nc3c2)cc(OC)c1OC
35	17.0	x	CCN(CC)S(=O)(=O)c1cccc(-c2cn3cccnc3n2)c1
36	3.0	0.6	Cc1cc(-c2ccccc2)c(C#N)c(N)n1
37	x	-1.5	Cc1[nH]nc(N)c1Br
38	x	0.0	Cc1ccc2c(c1)nnn2CNc1ccc(OC(F)(F)F)cc1
39	7.0	-2.3	CCc1ccc(OC(=O)CN2C(=O)c3ccccc3C2=O)cc1
40	0.0	0.2	CCOc1ccccc1C(=O)N1c2ccccc2Sc2ccccc21
41	-3.0	x	CCn1cc(SCC(=O)Nc2ccccc2)c2ccccc21
42	4.0	-2.4	CC1(C)Oc2ccc(NC(=O)c3ccco3)cc2O1
43	8.0	x	Cc1oc(CC(C)C)cc1C(=O)Nc1ccccc1C(=O)O
44	-10.0	2.0	O=C(OCn1nnc2ccccc2c1=O)C1CCCCC1
45	4.0	x	CNC(=O)c1sc(NCc2ccccc2OC)nc1C
46	x	0.3	CCOC(=O)c1c(NC(=O)c2ccc(Cl)cc2Cl)sc(C(=O)Nc2ccc(OC)cc2)c1C
47	x	2.6	CCOC(=O)c1cnc(SCC(=O)c2cc(Cl)c(Cl)s2)nc1N
48	-9.0	x	O=C(Nc1ccc(Cl)cc1)Nc1ncnc2nc[nH]c12
49	x	0.0	O=C1/C(=C/c2ccc(O)cc2)SC(=Nc2ccc(O)cc2)N1c1ccc(O)cc1
50	10.0	x	COC(=O)c1ccc(NC(=O)COC(=O)c2cccc(N(C)C)c2)cc1
51	-19.0	x	O=C(Nc1ccc(F)cc1F)C1CC(c2ccccc2F)=NO1 (stereo unspecified)
52	5.0	-1.6	CCN(CC)CCNc1ccc(C(F)(F)F)cn1
53	16.0	-2.4	CN1Cc2ccccc2N(CC(=O)NCc2ccccc2)C1=O
54	-19.0	x	NCc1ccc2[nH]c3c(c2c1)CCCC3
55	9.0	0.7	CCCNC(=O)c1cc(C(C)C)on1
56	11.0	x	C=CCN1C(=O)CSc2ccc(C(=O)N3CCC(C)CC3)cc21
57	9.0	x	Cn1cnnc1SCNC(=O)C(F)(F)F
58	8.0	7.1	O=S1(=O)C=C(Sc2nc3ccccc3s2)c2ccccc21
59	x	-1.4	CN(C(=O)c1ccc2c(c1)CCO2)C(C)(C)C
60	x	-1.1	COc1ccc(OC)c(C2NC(=O)NC(C)=C2C(=O)OCCc2ccccc2)c1Br (stereo unspecified)

Carrying on:
#	Sa helicase inh	MgrA DNA FP	compound
61	2.0	x	O=C(Cn1c(=O)cnc2ccccc21)Nc1ccccc1
62	5.0	0.1	Cc1nn(C(C)C(=O)N(C)Cc2ccccc2)c(=O)c2c1sc1ccccc12 (stereo unspecified)
63	16.0	0.8	Cc1ccc2c(c1)c1c(n2CCC#N)CC[N+](C)(C)C1
64	-27.0&-14.0	x	O=c1oc2ccccc2c(O)c1/C=N/N1CCOCC1
65	5.0	3.0	COc1ccc(OC)c(-c2cn(S(=O)(=O)c3ccccc3)nc2N)c1
66	16.0	-2.4	Cc1cc(C)nc(Sc2ccccc2)n1
67	10.0	-2.8	CCOC(=O)c1[nH]c2ccc(OCC)cc2c1CCCN1C(=O)c2ccccc2C1=O
68	12.0	-2.9	CC(C)Cc1ccc(S(=O)(=O)N2CC(C)CC(C)C2)cc1 (stereo unspecified)
69	20.0	x	CCS(=O)(=O)c1nc(S(=O)(=O)c2ccc(Cl)cc2)c(NC(C)C)s1
70	2.0	-0.5	CC(=O)N/N=C/c1ccc(C)c(C)c1C
71	13.0	1.2	CC1(C)C=C(C(N)=O)C(C)(C)N1OC(=O)c1ccco1
72	-6.0	x	C/C(CN1C(=O)CCC1=O)=N/NC(=O)C1CCN(S(=O)(=O)c2ccc(C)cc2)CC1
73	3.0	0.0	O=C(CC(c1ccc(Cl)cc1)S(=O)(=O)c1ccccc1)c1cccs1 (stereo unspecified)
74	0.0	x	O=C(O)CSc1nnc(-c2cccs2)n1-c1cccc(C(F)(F)F)c1
75	7.0	x	Cc1ccc2oc(=O)c3cnn(CC(=O)N4C(C)CCCC4C)c3c2c1 (stereo unspecified)
76	-16.0	x	CCN(CC(=O)NCc1ccc(F)cc1)Cn1cnc2ccccc21
77	-11.0	x	Cc1ccc(S(=O)(=O)NCC(C)(C)N2CCOCC2)cc1C
78	x	1.2	CCN=C(Nc1ccc(C(C)(C)C)cc1)SCC1CC1
79	10.0	x	Cc1cccc(-c2nnc(SCC(=O)NC(=O)Nc3ccccc3F)n2Cc2ccco2)c1
80	x	-1.8	CCOC(=O)c1sc(COc2ccc(C(C)(C)C)cc2)nc1C
81	x	-0.4	Cc1ccc2nc(-c3ccc(NC(=O)c4cc(Br)ccc4Cl)cc3)oc2c1
82	x	-1.7	CC(C)(C)c1nc(-c2ccc(-c3ccon3)s2)no1
83	13.0	-0.8	COC(=O)CCNc1ccc2c(c1)OCCO2
84	11.0	-2.0	COc1ccc(-c2c(C(=O)O)c3cc(OC)c(OC)cc3c(=O)n2C)cc1O
85	9.0	x	O=C(OCC(=O)N1CCCC1=O)c1cccc2ccccc12
86	x	-0.7	CCOC(=O)c1cnc(COc2ccc(C(C)(C)C)cc2)[nH]c1=O
87	-25.0	x	COc1ccc(NC(NC(C)=O)(C(F)(F)F)C(F)(F)F)c(OC)c1
88	x	-1.5	CS(=O)(=O)c1ncc(OCc2ccccc2)cn1
89	x	-2.2	CCOC(=O)c1cc(/C(N)=N/O)c(C)nc1C(F)(F)F
90	-18.0	x	Cc1cc(C)n(-c2ccc(N/N=C(/C#N)S(C)(=O)=O)cc2)n1
91	7.0	11.3	Cc1nnc(C)n1/N=C/c1cc(Br)cc(Br)c1O
92	8.0	0.9	O=C(c1ccccc1)c1ccccc1C(=O)N1CCN(c2ccccc2)CC1
93	x	0.0	CSC(=CC(=O)c1sc2scc(C)c2c1C)SC
94	4.0	x	Cc1ccc(Nc2nnc(SC(C)C(=O)N3CCC(C)CC3)s2)cc1 (stereo unspecified)
95	-11.0	x	COc1cc(NC(C)=O)ccc1/C=N/NC(N)=S
96	-2.0	x	CCOC(=O)c1oc2ccccc2c1CSc1nnc(Cc2ccccc2)n1C
97	0.0	x	CCOC(=O)c1ccc(N2CCN(c3cccc(OC)c3)CC2)c(NC(=O)Nc2ccc(CC)cc2)c1
98	8.0	5.8	CN(C)c1cc[n+](C(=O)N2CCOCC2)cc1
99	x	3.4	NS(=O)(=O)c1ccc(NC(=O)CSc2nc3ccccc3s2)cc1
100	-10.0	x	CCN(CC(=O)Nc1ccc2[nH]c(=O)[nH]c2c1)Cc1nc2ccccc2c(=O)[nH]1
101	-1.0	-0.6	c1ccc2c(c1)nc(NCC1CCCO1)c1nnnn12 (stereo unspecified)
102	11.0	x	O=C(Cn1ncn2c(cc3cc(F)ccc32)c1=O)NCCCN1CCOCC1
103	13.0	x	CC(=O)Nc1ccc(OCC(=O)N(c2ccccc2)C(C)C)cc1

Reformatted screen by screen: entries from further up.
(69) CCS(=O)(=O)c1nc(S(=O)(=O)c2ccc(Cl)cc2)c(NC(C)C)s1
(70) CC(=O)N/N=C/c1ccc(C)c(C)c1C
(71) CC1(C)C=C(C(N)=O)C(C)(C)N1OC(=O)c1ccco1
(72) C/C(CN1C(=O)CCC1=O)=N/NC(=O)C1CCN(S(=O)(=O)c2ccc(C)cc2)CC1
(73) O=C(CC(c1ccc(Cl)cc1)S(=O)(=O)c1ccccc1)c1cccs1 (stereo unspecified)
(74) O=C(O)CSc1nnc(-c2cccs2)n1-c1cccc(C(F)(F)F)c1
(75) Cc1ccc2oc(=O)c3cnn(CC(=O)N4C(C)CCCC4C)c3c2c1 (stereo unspecified)
(76) CCN(CC(=O)NCc1ccc(F)cc1)Cn1cnc2ccccc21
Compound	69	70	71	72	73	74	75	76
Sa helicase inh	20.0	2.0	13.0	-6.0	3.0	0.0	7.0	-16.0
MgrA DNA FP	x	-0.5	1.2	x	0.0	x	x	x

(77) Cc1ccc(S(=O)(=O)NCC(C)(C)N2CCOCC2)cc1C
(78) CCN=C(Nc1ccc(C(C)(C)C)cc1)SCC1CC1
(79) Cc1cccc(-c2nnc(SCC(=O)NC(=O)Nc3ccccc3F)n2Cc2ccco2)c1
(80) CCOC(=O)c1sc(COc2ccc(C(C)(C)C)cc2)nc1C
(81) Cc1ccc2nc(-c3ccc(NC(=O)c4cc(Br)ccc4Cl)cc3)oc2c1
(82) CC(C)(C)c1nc(-c2ccc(-c3ccon3)s2)no1
(83) COC(=O)CCNc1ccc2c(c1)OCCO2
(84) COc1ccc(-c2c(C(=O)O)c3cc(OC)c(OC)cc3c(=O)n2C)cc1O
Compound	77	78	79	80	81	82	83	84
Sa helicase inh	-11.0	x	10.0	x	x	x	13.0	11.0
MgrA DNA FP	x	1.2	x	-1.8	-0.4	-1.7	-0.8	-2.0

(85) O=C(OCC(=O)N1CCCC1=O)c1cccc2ccccc12
(86) CCOC(=O)c1cnc(COc2ccc(C(C)(C)C)cc2)[nH]c1=O
(87) COc1ccc(NC(NC(C)=O)(C(F)(F)F)C(F)(F)F)c(OC)c1
(88) CS(=O)(=O)c1ncc(OCc2ccccc2)cn1
(89) CCOC(=O)c1cc(/C(N)=N/O)c(C)nc1C(F)(F)F
(90) Cc1cc(C)n(-c2ccc(N/N=C(/C#N)S(C)(=O)=O)cc2)n1
(91) Cc1nnc(C)n1/N=C/c1cc(Br)cc(Br)c1O
(92) O=C(c1ccccc1)c1ccccc1C(=O)N1CCN(c2ccccc2)CC1
Compound	85	86	87	88	89	90	91	92
Sa helicase inh	9.0	x	-25.0	x	x	-18.0	7.0	8.0
MgrA DNA FP	x	-0.7	x	-1.5	-2.2	x	11.3	0.9

(93) CSC(=CC(=O)c1sc2scc(C)c2c1C)SC
(94) Cc1ccc(Nc2nnc(SC(C)C(=O)N3CCC(C)CC3)s2)cc1 (stereo unspecified)
(95) COc1cc(NC(C)=O)ccc1/C=N/NC(N)=S
(96) CCOC(=O)c1oc2ccccc2c1CSc1nnc(Cc2ccccc2)n1C
(97) CCOC(=O)c1ccc(N2CCN(c3cccc(OC)c3)CC2)c(NC(=O)Nc2ccc(CC)cc2)c1
(98) CN(C)c1cc[n+](C(=O)N2CCOCC2)cc1
(99) NS(=O)(=O)c1ccc(NC(=O)CSc2nc3ccccc3s2)cc1
(100) CCN(CC(=O)Nc1ccc2[nH]c(=O)[nH]c2c1)Cc1nc2ccccc2c(=O)[nH]1
Compound	93	94	95	96	97	98	99	100
Sa helicase inh	x	4.0	-11.0	-2.0	0.0	8.0	x	-10.0
MgrA DNA FP	0.0	x	x	x	x	5.8	3.4	x

(101) c1ccc2c(c1)nc(NCC1CCCO1)c1nnnn12 (stereo unspecified)
Compound	101
Sa helicase inh	-1.0
MgrA DNA FP	-0.6

Compound activity deposited in PubChem BioAssay by ICCB-Longwood Screening Facility, Harvard Medical School.
